# Bfl-1 A1 inh: inhibitors of the anti-apoptotic protein A1, read as caspase activation | MEF A1-2A-BIM cells, Caspase-Glo 3/7 luminescence, 3 h; percent of clofoctol response, vehicle zero | caspase activation, % (test concentration not listed) | actives 0.066% (n = 330,000);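 active means over half of replicate activation scores above 10%, or exactly half above 10 with the replicate mean above 10; inconclusive means replicate mean below 10 yet half the replicates above 10; inactive means over half of replicates below 10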;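 further: wells of about 30 µL received 50 nL stock; many hits fall short of the cut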
# T cruzi repl: blocks replication of Trypanosoma cruzi; T. cruzi beta-gal in NIH3T3, luminescence, 90 h; inhibition, % (concentration not given with the values); actives 1.4% (n = 300,000);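 active means mean inhibition across valid replicates above about 55%, limit read from the data; inconclusive means mean below that limit but half or more replicates reach it; inactive means mean below it, under half of replicates reach it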;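 further: signal also drops with host cell toxicity which is not excluded here; 0% = plate median of DMSO wells and 100% = zero luminescence signal; higher percent means less beta-gal luminescence so fewer parasites; stock transfer was 50 nL into about 50 µL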
# LANA-H2B inh: blocks KSHV LANA binding to histone H2A/H2B | inhibition, % (test concentration not listed) | actives 0.6% (n = 320,000) | AID 2629 | cell-free LANA-H2A/H2B peptide, fluorescence polarization | Q9QR71; in the data active means inhibition mostly above about 10%, no sharp cut-off; inactive means mostly below about 6.7%;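 further: stock transfer was 7.5 nL into about 10 µL; 0% = median of vehicle wells and 100% = median of positive control wells; one replicate is shown; the record names a cut of 25% in any replicate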
# B2AR ag: agonists of human beta-2 adrenergic receptor inducing internalization | response, % (no concentration beside the values) | actives 0.43% (n = 340,000) | P07550 | Am2.2-beta2AR cells, FAP receptor internalization, flow cytometry; reference of the scale not given here | AID 504454;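 active means response above a set limit, near 3 SD of response in nonfluorescent compounds, cut at about 42% in these data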;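 further: stock transfer was 100 nL into about 11 µL; a reference agonist was the positive control; negative values mostly stem from fluorescent compounds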
# Target sequence (P07550 whole entry, looked up): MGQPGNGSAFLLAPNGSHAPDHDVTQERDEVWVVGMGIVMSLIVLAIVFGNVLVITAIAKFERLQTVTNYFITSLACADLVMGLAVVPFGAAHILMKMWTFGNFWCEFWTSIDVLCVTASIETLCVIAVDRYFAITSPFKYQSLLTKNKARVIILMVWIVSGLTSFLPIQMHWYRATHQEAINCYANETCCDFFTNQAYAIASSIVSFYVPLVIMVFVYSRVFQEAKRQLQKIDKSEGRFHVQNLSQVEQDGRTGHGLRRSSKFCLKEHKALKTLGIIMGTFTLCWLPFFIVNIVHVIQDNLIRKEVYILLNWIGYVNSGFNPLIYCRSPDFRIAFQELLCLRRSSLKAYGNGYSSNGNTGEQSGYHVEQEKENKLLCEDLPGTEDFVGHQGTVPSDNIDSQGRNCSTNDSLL
# Calb FLC: C. albicans growth modulation with fluconazole. C. albicans CaCi-2 (fluconazole-resistant clinical isolate) + fluconazole, Alamar Blue growth, 48 h. growth inhibition, % (test concentration not listed). actives 0.57% (n = 300,000). AID 1979;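 active means most replicates above 75%; inconclusive means exactly half above 75%; inactive means most below 75%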;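 further: all wells also contain fluconazole at 8 µg/ml as a sub-toxic cotreatment; 0% = median of DMSO wells and 100% = median of geldanamycin control wells; wells of about 8 µL received 7.5 nL stock; the first replicate is given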
# rRNA inh HTS: inhibits bacterial ribosomal RNA function over humanized ribosomes; E. coli WT GFP vs humanized-ribosome RFP mutants, fluorescence, 24 h; hits give low values; DMSO median 0, no signal -100; GFP signal change (wild-type ribosome), % (concentration not given with the values); actives 1.6% (n = 350,000); AID 720706;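 active means significant combined selectivity score with lowered wild-type GFP, culture density cut under 30%, mutant RFP and density less affected; inactive means any of these conditions unmet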; further: one replicate is shown; some compounds called inactive have numbers as strong as hits
# Beta apoptosis: blocks beta cell apoptosis | INS-1E cytokine-induced death, ATP luminescence, 48 h; percent of positive-control rescue, neutral wells zero | protection from apoptosis, % (concentration not given with the values) | actives 0.8% (n = 300,000) | AID 435005;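 active means all replicates at 75% or more, or half of them and the mean; inconclusive means half reach 75% but not the mean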;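 further: 0% = cytokine-treated negative control wells and 100% = positive control rescue; higher means more ATP so stronger rescue from cytokine killing; wells of about 40 µL received 100 nL stock; the first replicate is given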
# ALR H2O2 inh: human ALR oxidase inhibition via reduced H2O2; purified ALR, DTT oxidation, H2O2 HRP-luminol luminescence; actives 3.8% (n = 290,000); inhibition, % (no concentration beside the values); P55789; AID 485317;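 active means mean and each replicate at 75% or more; inconclusive means only one of the two met; inactive means neither met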;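 further: stock transfer was 7.5 nL into about 7.5 µL; 0% = neutral wells and 100% = wells with inactivated enzyme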
# Target sequence (P55789 whole entry, looked up): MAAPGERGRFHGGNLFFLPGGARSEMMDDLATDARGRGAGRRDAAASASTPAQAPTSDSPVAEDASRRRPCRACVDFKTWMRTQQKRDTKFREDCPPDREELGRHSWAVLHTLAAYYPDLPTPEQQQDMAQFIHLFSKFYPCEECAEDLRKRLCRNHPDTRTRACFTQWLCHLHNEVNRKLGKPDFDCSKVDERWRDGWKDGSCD
# rRNA inh HTS OD600: also measured in rRNA inh HTS; calls as there; OD600 change, %; measured here: OD600 growth;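 optical density of the mix in the first replicate; 0 = DMSO median and -100 = no signal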
# rRNA inh HTS RFP: also measured in rRNA inh HTS; calls as there; RFP signal change, %; measured here: RFP humanized mutant strains;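 first replicate; 0 = DMSO median and -100 = no signal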
# Active calls of the source: *; ? = inconclusive; · = no result given. An excerpt. The share of hits here may be higher or lower than overall.
SMILES,Bfl-1 A1 inh,T cruzi repl,LANA-H2B inh,B2AR ag,Calb FLC,rRNA inh HTS,rRNA inh HTS OD600,rRNA inh HTS RFP,Beta apoptosis,ALR H2O2 inh
O=C(CN1CCC(NC(=O)C2CCCCC2)CC1)NCc1ccco1,0.5,1,-2.6,5,-3,17,14,-2.1,-9,0
Cc1cc(C)cc(C(=O)N2CCC(C(N)=O)CC2)c1,-0.1,1,0.9,-1,-7,·,·,·,-1,4
Cc1nnc(NC(=O)CCn2c(=O)oc3ccc(Cl)cc32)s1,-0.7,-15,5.0,9,6,2,4,-0.5,3,-3
CC(=O)N1CCN(c2ccc(NCc3ccc(-c4cccc(Cl)c4)o3)cc2)CC1,0.6,·,-2.2,15,·,·,·,·,2,85*
CCOC(=O)c1c(S(=O)(=O)N2CCCC(C(=O)Nc3cccc(C)n3)C2)c(C)n(C)c1C (configuration not stated),-0.7,1,2.0,0,1,14,5,2.6,-2,-2
Cc1ccc(C(=O)NCC(=O)NCC(=O)OCc2ccc(F)cc2)cc1,0.1,-6,-2.2,1,-8,14,12,3.6,3,-1
COc1cccc(C(=O)c2cc3ccc(O)cc3oc2=O)c1,-8.0,-10,2.5,4,-3,-30*,-15*,1.3*,5,·
Clc1ccc(/C=N/Nc2ncnc3ccccc23)cc1Cl,0.0,22,-0.5,-3,-14,·,·,·,2,8
COc1cccc(-n2cc(C(=O)O)c3ccccc3c2=O)c1,0.9,4,0.5,3,2,·,·,·,-10,-1
COc1ccc2c(c1)c1nc3ccccc3nc1n2CCn1c(=O)oc2ccccc21,0.5,14,-6.8,-4,0,·,·,·,14,-1
CC1(C)CC(c2nc(-c3ccccc3)cs2)CCS1 (configuration not stated),0.4,7,-7.1,-16,-10,-7,1,-2.2,6,-3
COc1ccccc1CN1CC(C(=O)NCc2cccc(Cl)c2)CCC1=O (configuration not stated),0.2,-6,1.0,-2,-2,-3,-7,-1.5,0,-53
CCc1cccc(CC)c1NC(=O)COc1ccccc1C(=O)c1cc(C#N)c(=O)n(C2CCCCC2)c1,-0.7,9,1.5,4,3,4,-7,-1.0,15,2
O=C(N/N=C/c1ccc2ncccc2c1)c1cccc([N+](=O)[O-])c1,-0.3,0,6.2,-5,1,7,10,-0.5,0,·
CCOc1ccc(/C=N/NC(=O)c2ccc(F)cc2)cc1CN1CC2CC(C1)c1cccc(=O)n1C2 (configuration not stated),-0.1,·,-34,2,·,-9,-5,11,4,-5
Cc1ccc(S(=O)(=O)NNC(=S)NCC2CCCO2)cc1 (configuration not stated),-0.1,-7,5.4,-4,2,5,14,1.1,-1,18
COc1cccc(CNc2ccc3[nH]c(=O)[nH]c3c2)c1OCc1ccccc1F,-0.1,-17,-8.5,12,22,2,-4,-9.7,4,99*
COCCn1c(SCC(=O)c2ccc3c(c2)OCCO3)nnc1C(C)C,-1.2,-12,0.5,0,-5,·,·,·,4,23
CC(=O)Nc1cc(C(N)=O)c(Cl)cc1Cl,0.3,2,-0.8,-4,-8,·,·,·,-1,-6
CC(C)(C)c1ccc(NC(=O)c2ccccc2)c([N+](=O)[O-])c1,-2.7,13,-5.0,2,10,-14,-25,-3.4,3,-3
CCOC(=O)C1(CCOc2ccccc2)CCN(Cc2cc(OC)ccc2OC)CC1,0.0,22,-1.9,5,4,-14,-17,-0.5,11,·
O=C1C2ON(c3ccccc3)C(c3ccncc3)C2C(=O)N1c1ccccc1 (configuration not stated),0.4,-20,4.8,9,12,·,·,·,6,-19
O=C(Nc1ccc2c(c1)OCCO2)C(=O)NC1CC1,-0.3,-8,6.0,7,-4,4,10,-0.8,-2,-1
CC1CCCN(C(=O)CNC(=O)c2ccco2)C1 (configuration not stated),1.8,-7,0.6,-8,0,7,6,-1.5,0,0
CCc1nc2ccccc2c(C(=O)OCC(=O)NCc2ccco2)c1C,2.2,0,3.6,-8,-2,·,·,·,-5,7
CC(=O)Nc1ccc(-c2ccccc2)s1,0.7,-7,-4.6,4,14,·,·,·,-4,-4
CS(=O)(=O)c1ccc(C(=O)NCC(c2ccco2)N2CCCCC2)cc1 (configuration not stated),0.8,9,-0.4,-1,13,3,-12,37,0,-2
O=c1oc2cc([N+](=O)[O-])ccc2nc1/C=C(\O)c1cccc(Br)c1,2.0,-19,-0.4,-1,1,·,·,·,7,67
Cc1ccc(NS(=O)(=O)c2cc3c4c(cccc4c2)C(=O)NC3=O)cc1,0.6,3,2.8,3,0,11,16,-7.5,-3,-4
CCOC(=O)N1CCN(CC(O)COc2ccc(OC)cc2C(C)(C)C)CC1 (configuration not stated),0.2,8,5.2,-6,-6,·,·,·,·,-3
COc1cc(C2NC(=O)NC(c3ccccc3)=C2C(C)=O)cc([N+](=O)[O-])c1O (configuration not stated),1.0,-9,2.1,7,0,11,5,-2.0,1,2
CC(Sc1nnc(-c2ccc(OC(F)F)cc2)n1N)C(=O)NCC1CCCO1 (configuration not stated),1.4,-8,-3.7,5,-1,6,15,-0.1,-10,0
COC(=O)c1ccc(C2C(C#N)=C(C)NC3=C2C(=O)CC(C)(C)C3)cc1 (configuration not stated),-0.6,-11,-4.4,-2,-4,·,·,·,·,-3
COc1ccc(C2C(C(=O)O)CCC(=O)N2c2ccc(OC)cc2)cc1 (configuration not stated),1.2,-7,0.1,-3,40,7,7,3.5,0,·
COC(=O)c1nn(-c2ccccc2)c(Cl)c1/C=N/OCc1ccc(Cl)cc1Cl,0.3,23,-1.1,-3,-5,·,·,·,-7,-3
Cc1ccc(S(=O)(=O)N2CCOC2CNC(=O)C(=O)NCc2ccncc2)cc1 (configuration not stated),-0.4,-10,-3.3,6,1,8,-4,-0.1,0,-6

# Single records, as listed above. Values in the order: Bfl-1 A1 inh	T cruzi repl	LANA-H2B inh	B2AR ag	Calb FLC	rRNA inh HTS	rRNA inh HTS OD600	rRNA inh HTS RFP	Beta apoptosis	ALR H2O2 inh
# Entry for CCOC(=O)N1CCN(CC(O)COc2ccc(OC)cc2C(C)(C)C)CC1 (configuration not stated) : 0.2	8	5.2	-6	-6	·	·	·	·	-3
# Entry for COC(=O)c1ccc(C2C(C#N)=C(C)NC3=C2C(=O)CC(C)(C)C3)cc1 (configuration not stated) : -0.6	-11	-4.4	-2	-4	·	·	·	·	-3

# Going on with the list:
SMILES,Bfl-1 A1 inh,T cruzi repl,LANA-H2B inh,B2AR ag,Calb FLC,rRNA inh HTS,rRNA inh HTS OD600,rRNA inh HTS RFP,Beta apoptosis,ALR H2O2 inh
Cc1ccc2c(c1)c(N=O)c(O)n2Cc1ccc(Cl)cc1,-0.3,4,2.7,-13,8,-29,-40,-9.9,43,-5
CC1Cc2ccccc2N1C(=O)Cn1c(=O)cc(O)c2ccccc21 (configuration not stated),0.0,-2,-4.4,-7,27,·,·,·,-6,-12
COc1ccccc1OCCOCCn1cnc2ccccc2c1=O,0.9,·,-1.0,-3,3,·,·,·,4,-11
C=CCNC(=O)CSc1nc2sc(C)c(C)c2c(=O)[nH]1,-0.5,-3,0.3,2,17,6,4,-2.0,0,-1
CCc1ccccc1NC(=O)Nn1cnnc1,0.0,-8,0.7,-4,14,11,16,1.8,-2,-3
Nc1ccc(NC(=S)Nc2ccccc2)cc1,0.2,-19,5.1,4,-6,4,1,8.5,-2,39
Cc1ccc(C)c(-n2c3nc(=O)n(C)c(=O)c-3cc3ccccc32)c1,-0.2,42,-2.6,11,7,-2,-3,0.1,-1,4
Cc1ccc(Cl)cc1NC(=O)C1CCCN(S(=O)(=O)c2c(C)noc2C)C1 (configuration not stated),1.0,-6,-1.4,4,12,·,·,·,-1,-3
CC(/C=N/NC(=O)CSc1nnc(SCc2ccccc2)s1)=C\c1ccco1,-0.5,-13,-7.0,6,0,·,·,·,-8,-10
COc1ccc2c(=O)c(C(=O)NCCc3ccc(OC)c(OC)c3)c[nH]c2c1,-0.3,11,-1.9,3,-4,·,·,·,-3,-8
CSc1ccccc1C(=O)C1CCCN(C(=O)CCN2CCCO2)C1 (configuration not stated),-0.4,-2,1.0,0,-32,6,0,-1.7,-4,-3
COc1ccc2[nH]cc(/C=C(/C#N)S(=O)(=O)c3ccccc3)c2c1,0.0,-3,-3.3,29,-6,·,·,·,1,-3
CC(=O)Nc1ccc(S(=O)(=O)Nc2c(C)nn(-c3ccccc3)c2C)cc1,0.5,-13,-1.5,-4,-4,-4,0,-2.2,1,-4
Cc1c(C(=O)Nn2cnnc2)oc2ccccc12,-2.8,-5,2.7,-8,-1,·,·,·,0,1
O=[N+]([O-])c1ccc(S(=O)(=O)NCCc2ccncc2)cc1,0.5,28,3.7,3,-12,16,17,-3.2,4,-14
Cc1ccc(-c2nn(CC(=O)NN3CCOCC3)c(=O)c3ccccc23)cc1,0.2,-12,-1.9,-1,15,10,10,-1.1,1,0
COc1ccc(C(=O)NCCOc2ccccc2)cc1S(=O)(=O)N1CCOCC1,0.2,·,-5.6,11,·,·,·,·,-7,1
Cc1ccc2c(c1)cc1c(=O)n(CC(=O)NCCCc3ccccc3)nc(C)n12,0.8,1,-2.7,6,1,14,20,0.8,-5,-1
NC(=O)C1CCCN(CC(=O)N2CCN(c3ccccc3)CC2)C1 (configuration not stated),0.0,-4,5.3,7,0,4,4,-0.8,0,64
COc1ccc(OCC(O)CNC2CCCC2)cc1 (configuration not stated),0.0,-1,-0.6,-8,-1,14,15,0.9,-8,-3
CC1CCC(N(C(=O)c2csnn2)C(C(=O)NC(C)(C)C)c2cccnc2)CC1 (configuration not stated),0.9,2,-0.3,-1,-2,21,22,4.9,2,-4
Cc1cc(C(=O)NCc2ccc(F)cc2)n(-c2ccccc2)n1,1.3,-8,-0.8,4,1,2,1,1.1,0,·
Cc1cc(C(=O)N/N=C/c2ccc(N(C)C)cc2)c2ccccc2n1,0.2,-2,-6.4,3,4,14,14,-0.2,-1,?
CCOc1ccccc1-c1nc(C(N)=O)c2[nH]c(=O)n(-c3ccccc3)c2n1,-0.5,8,1.0,-5,-3,·,·,·,6,-2
CC(=O)Cc1nsc(Nc2ccccc2)n1,1.4,-17,-0.5,0,21,·,·,·,-2,-1
COc1ccc(CCNC(=O)COc2ccc(N(C)S(=O)(=O)c3ccc(C)cc3)cc2)cc1,-0.6,28,-3.0,-6,3,3,1,-3.2,-11,·
COc1ccc(NC(=O)CNC(=O)c2ccc([N+](=O)[O-])cc2)cc1,-0.5,5,2.6,-3,0,10,8,-1.1,-2,-6
O=C(NCCNS(=O)(=O)c1ccccc1)c1cc(OCC(F)(F)F)ccc1OCC(F)(F)F,-0.9,1,-1.3,2,1,·,·,·,21,50
O=C1CSC(c2cccc(O)c2)N1Cc1ccccc1 (configuration not stated),-1.8,2,-8.1,-3,5,-14,-5,4.9,-2,5
COc1ccc(/C=C2\SC(=S)N(CCC(=O)NCCc3ccc(O)cc3)C2=O)cc1,-0.5,-4,1.5,-1,4,7,3,4.3,-10,0
CCS(=O)(=O)N1CCN(c2ccnc3cc(Cl)ccc23)CC1,0.1,1,-3.9,-14,3,-21*,-5.5*,1.3*,-8,-1

# Source: PubChem BioAssay
